Screening data from PubChem.
CSC inhib – cancer stem cell inhibition. inhibition, % at 7.5 µM. cancer stem cell-like cells viability, luminescence. actives 1.1% (n = 300,000);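 active = mean at 75% or more and at least half the replicates too; tested in HMLE shEcad cells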;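 also: 0% = median of negative and 100% = median of positive control wells; the first replicate is given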
PABP polyA inh – PABP-poly(A) binding inhibition. actives 1% (n = 290,000). inhibition, % at 35 µM. AID 2014. PABP-poly(A) RNA binding, fluorescence polarization;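 active = 50% or more with normal probe brightness, or confirmed in later tests; about a fifth of its hits are not listed in these tables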;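 also: calls also rest on retests at 20 µM and on dose response follow-up; controls were probe without protein and protein plus probe with vehicle; some compounds called inactive have numbers as strong as hits; many hits fall short of the cut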
Target sequence (P11940 whole entry, looked up): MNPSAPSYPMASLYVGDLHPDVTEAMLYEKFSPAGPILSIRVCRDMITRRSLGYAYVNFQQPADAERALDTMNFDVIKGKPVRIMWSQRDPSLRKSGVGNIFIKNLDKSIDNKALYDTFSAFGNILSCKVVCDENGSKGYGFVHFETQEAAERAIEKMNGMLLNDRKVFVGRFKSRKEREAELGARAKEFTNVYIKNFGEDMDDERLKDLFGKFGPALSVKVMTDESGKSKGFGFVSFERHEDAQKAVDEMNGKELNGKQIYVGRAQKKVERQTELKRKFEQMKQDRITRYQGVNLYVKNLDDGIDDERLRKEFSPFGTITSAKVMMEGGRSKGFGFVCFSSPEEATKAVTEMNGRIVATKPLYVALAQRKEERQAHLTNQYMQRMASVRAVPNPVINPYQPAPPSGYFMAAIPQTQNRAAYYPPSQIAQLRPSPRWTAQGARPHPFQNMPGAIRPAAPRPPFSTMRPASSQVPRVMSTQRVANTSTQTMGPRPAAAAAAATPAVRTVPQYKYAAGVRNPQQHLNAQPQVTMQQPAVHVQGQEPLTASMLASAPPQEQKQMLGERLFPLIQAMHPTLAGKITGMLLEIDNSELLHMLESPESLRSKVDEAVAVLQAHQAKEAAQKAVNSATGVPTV
eIF4H FP inh – inhibitors of RNA binding by human eIF4H; Q15056; eIF4H fluorescence polarization binding assay; inhibition, % at 35 µM; actives 0.94% (n = 290,000); AID 2012;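 active = 50% or more with normal probe brightness, or confirmed in later tests; about a fifth of its hits are not listed in these tables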;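 also: calls also rest on retests at 20 µM and on dose response follow-up; 0% = protein and probe with vehicle and 100% = probe without protein; strong numbers were not always called active; many hits fall short of the cut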
Env fusion inh – HIV envelope-mediated fusion inhibition; HeLa-JRFL Env/CEM21 cell fusion, luciferase; inhibition, % at 12.3 µM; actives 1.1% (n = 360,000);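 active = mean replicate inhibition score of at least 50 and every replicate individually at or above 50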;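 also: 0% = plate neutral controls and 100% = maraviroc near 300 nM; one replicate is shown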
MT1-MMP act inh – inhibitors of human MT1-MMP activation. P50281. HT1080 RFP-PRO-GFP cells, GFP/RFP ratio fluorescence, overnight; percent of plate control window, DMSO zero. GFP/RFP ratio change, % at 20 µM. actives 0.061% (n = 360,000). AID 651647;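 active = GFP/RFP ratio change of at least 30% with cell ATP level not reduced by more than half and red fluorescence within 50% of control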; also: strong numbers were not always called active
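system = RFP-PRO-GFP reporter HT1080 cells | dosing = 20 µM single dose, 1% DMSO | timing = overnight cell settling, then overnight compound exposure, 37 °C, 5% CO2 | read-out basis = GFP/RFP fluorescence ratio | controls = DMSO and RFP-L50D-GFP cell wells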
UUG fidelity – yeast start codon fidelity modulation | actives 0.13% (n = 350,000) | activity score, % at 18.7 µM | S. cerevisiae UUG-firefly luciferase reporter, luminescence/redox ratio;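 active = replicate mean at a twofold rise or more, about +100% in these data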;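 also: firefly luciferase made from a UUG start codon reports start codon fidelity; reporter light over untreated wells divided by growth signal over untreated wells; some hits fall short of that in this replicate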
Rce1 inhib – inhibitors of yeast Ras-converting enzyme; actives 0.27% (n = 290,000); Q03530; calls only; yeast membranes, quenched prenylated peptide cleavage fluorescence;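 active = fall in fluorescence gain of 50% or more versus controls, with final raw signal at or below 3038400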;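 also: plate controls were neutral control wells for no effect and wells lacking membranes for full effect; tested at 10 µM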
Target sequence (Q03530 whole entry, looked up): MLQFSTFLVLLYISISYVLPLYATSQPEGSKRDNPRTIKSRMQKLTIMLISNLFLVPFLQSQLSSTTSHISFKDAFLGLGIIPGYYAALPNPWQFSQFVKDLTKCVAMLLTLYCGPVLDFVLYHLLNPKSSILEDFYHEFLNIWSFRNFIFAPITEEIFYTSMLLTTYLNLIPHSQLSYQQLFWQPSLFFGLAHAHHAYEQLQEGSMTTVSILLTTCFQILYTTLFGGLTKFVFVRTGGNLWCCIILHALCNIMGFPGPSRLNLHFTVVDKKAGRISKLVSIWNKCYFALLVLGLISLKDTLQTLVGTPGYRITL
eIF4H FP inh retest – further read-out of eIF4H FP inh, marked with its call; inhibition, %; compound at 20 µM; confirmation average;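 mean of two retest wells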
PABP polyA inh retest – also measured in PABP polyA inh; calls as there; inhibition, %; compound at 20 µM; confirmation repeats;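 mean of two retest wells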
MT1-MMP act inh RFP – also measured in MT1-MMP act inh; calls as there; RFP signal change, %; measured here: RFP expression control read;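 0 = vehicle wells; hits needed this value within 50% of zero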
Starred values were filed as active, the others as inactive; i = inactive; / = no result given. The list is partial. The share of hits here may be higher or lower than overall.

SMILES	CSC inhib	PABP polyA inh	eIF4H FP inh	Env fusion inh	MT1-MMP act inh	MT1-MMP act inh RFP	UUG fidelity	Rce1 inhib	others
COc1ccc(NS(=O)(=O)c2csc(C(=O)N3CCCC3)c2)c(OC)c1	3.2	12.8	-3.4	-1.2	0.2	-3.8	-7.7	i
CC(CCc1ccccc1)NC(=O)/C=C/c1ccc(Cl)cc1 (centres undefined)	-5.9	2.0	-2.4	-26.8	1.4	-1.1	-16.4	i
COc1ccc(C2N(C(C)=O)CCCN2S(=O)(=O)c2ccc(C)cc2)cc1 (centres undefined)	/	4.4	4.8	3.6	4.4	1.8	-11.9	i
COc1ccc2c(c1)c(=O)oc1c(C)c(OC(C)C(=O)N[C@@H](Cc3c[nH]c4ccc(O)cc34)C(=O)O)ccc12 (some centres undefined)	-13.5	53.0*	81.9*	/	1.6	7.2	-5.1	/
O=C(Cn1cnc2c(NC(=O)OCc3ccccc3)ncnc21)NCCN1CCOCC1	-5.3	/	/	-15.8	3.7	5.0	-4.8	/
CC(OC(=O)C1CC=CCC1C(N)=O)C(Cl)=C(Cl)Cl (centres undefined)	-11.9	7.0	-10.8	10.7	0.2	-1.8	-2.8	i
CC(C)OC(=O)CSc1nc(N2CCOCC2)c2c(c1C#N)CC(C)(C)OC2	-6.2	-1.3	-2.7	2.0	-3.7	-1.1	/	i
O=C(Nc1cccc(S(=O)(=O)N2CCCCC2)c1)c1ccc(S(=O)(=O)C(F)F)cc1	-14.3	0.1	3.5	17.5	-7.7	-24.9	-6.5	i
Cn1c(NCc2ccco2)nc2c1c(=O)n(Cc1ccc(Cl)c(Cl)c1)c(=O)n2C	23.0	3.3	1.7	/	3.7	-17.0	-17.7	i
O=C(c1ccco1)N1CCN(C(=O)c2cc(Cl)nc3ccccc23)CC1	-6.0	/	/	-0.4	4.0	0.9	-2.9	i
Cc1ccc(Cn2c(CCNc3nc(-c4ccc(Cl)c([N+](=O)[O-])c4)cs3)nc3cc(C(=O)NCCCO)ccc32)cc1	15.6	/	/	14.4	10.1	0.1	-22.8	i
CN(C(=O)CSc1nc(-c2ccc(C(C)(C)C)cc2)c(C#N)c(=O)[nH]1)C1CCCCC1	22.4	-4.1	-5.1	3.6	-1.7	3.9	-9.6	i
O=C(CSc1nnc([C@@H]2CCCN2)o1)c1ccc(Cl)cc1	-12.3	14.1	-2.6	-150.7	2.4	-0.8	-14.1	i
Clc1ccc(-n2cnnn2)cc1	-14.1	3.4	-10.3	-71.7	-8.0	-1.7	2.5	i
COc1ccc(CN2CCN(S(=O)(=O)c3ccc(NC(C)=O)cc3)CC2)c(OC)c1OC	/	18.0	11.5	11.0	-0.2	1.6	/	i
CCC(=O)Nc1cc(ON=C(C)C)cc([N+](=O)[O-])c1	-3.6	0.9	-6.5	2.8	0.9	-0.2	-4.3	i
Cc1nnc(NC(=O)/C=C/c2ccco2)s1	-5.8	-3.5	97.8	-3.3	1.0	2.0	/	i	eIF4H FP inh retest=-2.5;PABP polyA inh retest=8.4
Cc1nc(NC(=O)COC(=O)c2cc3c(s2)CCC(C)C3)c(Cl)cc1Cl (centres undefined)	0.1	3.9	-6.4	-1.8	-0.4	3.0	/	i
COc1ccc2oc(C(=O)OCC(=O)NCc3ccco3)c(C)c2c1	-11.7	/	/	10.3	-0.4	-2.2	-12.5	i
CC1CCCCN1C(=O)C1COc2ccccc2O1 (centres undefined)	-7.8	7.1	-3.5	8.7	-0.9	3.7	-18.2	i
CCOc1ccc(C(=O)NC2CCN(S(C)(=O)=O)CC2)cc1	-8.9	-8.6	1.3	-32.7	0.4	-0.1	-19.0	i
COc1ccc(S(=O)(=O)N2CCCC2C(=O)Nc2ccc(O)cc2)cc1 (centres undefined)	/	9.8	9.0	14.1	1.6	3.8	-2.9	i
Cc1ccc(Cn2c(=N)n(CC(=O)c3ccccc3)c3ccccc32)cc1	13.6	2.7	-1.4	18.7	7.9	-9.3	/	i
COC(=O)c1sccc1NC(=O)c1c(F)c(F)c(F)c(F)c1F	-5.8	/	/	-4.8	15.9	-2.2	-7.5	/
CC1CCCN(C(=O)Nc2cccc(NC(=O)N3CCCC(C)C3C)c2)C1C (centres undefined)	9.7	0.2	8.6	/	-7.7	3.2	-4.6	i
O=C1CNC(=S)N1Cc1ccccc1	-10.2	-6.3	-12.1	0.2	-10.1	9.4	/	i
COc1ccccc1-c1cc(C(=O)N/N=C/c2ccc(C)s2)c2ccccc2n1	-11.3	0.2	3.5	6.9	-6.7	-3.3	4.4	i
CCCCCCCN1CCC(=O)N([C@H](CO)c2ccccc2)CC1	-7.4	8.1	-11.8	-4.7	4.4	2.2	-16.3	i
O=C1CC(c2ccc3c(c2)OCO3)c2cc3c(cc2N1)OCO3 (centres undefined)	2.0	-5.8	-7.4	/	-1.4	-2.5	-10.2	i
CCOc1ccc(S(=O)(=O)NCCC(=O)NCC(c2cccs2)N2CCOCC2)cc1 (centres undefined)	2.3	19.7	5.8	/	-0.3	2.6	-10.2	i

Overlap with the part before: three entries, then new ones.
SMILES	CSC inhib	PABP polyA inh	eIF4H FP inh	Env fusion inh	MT1-MMP act inh	MT1-MMP act inh RFP	UUG fidelity	Rce1 inhib	others
CCCCCCCN1CCC(=O)N([C@H](CO)c2ccccc2)CC1	-7.4	8.1	-11.8	-4.7	4.4	2.2	-16.3	i
O=C1CC(c2ccc3c(c2)OCO3)c2cc3c(cc2N1)OCO3 (centres undefined)	2.0	-5.8	-7.4	/	-1.4	-2.5	-10.2	i
CCOc1ccc(S(=O)(=O)NCCC(=O)NCC(c2cccs2)N2CCOCC2)cc1 (centres undefined)	2.3	19.7	5.8	/	-0.3	2.6	-10.2	i
O=C(COc1ccc(Br)cc1)OCC(=O)c1ccc[nH]1	/	/	/	-30.5	2.0	4.8	-22.0	/
COc1ccccc1N(C(=O)c1snc(C(N)=O)c1N)C(C(=O)NCCC(C)C)c1ccco1 (centres undefined)	2.9	-7.2	7.0	7.6	-1.5	1.0	-6.2	i
O=C1[C@H]2CC3C=CC2(O3)[C@@H]2OCCCN12 (some centres undefined)	-4.1	/	/	17.9	-0.6	-2.5	-23.8	i
COC(=O)c1cc(NC(=O)c2ccc(Cn3cc(Cl)cn3)o2)cc(C(=O)OC)c1	2.9	-1.0	-4.5	/	0.4	-2.0	-4.4	i
c1cncc(CNc2ncnc3ccc(-c4ccoc4)cc23)c1	-2.0	/	/	47.4	-12.7	-10.5	-8.8	/
Cc1ccccc1N1CCN(CCCN2C(=O)CC(=C(c3ccccc3)c3ccccc3)C2=O)CC1	-8.1	4.5	-0.6	/	2.9	-0.2	-7.8	i
Cc1[nH]ccc(=O)c1OCc1ccc(Cl)cc1	15.8	-11.8	-11.4	-87.7	8.7	8.8	-9.8	i
O=C(CCc1nnc(C2CCCCC2)o1)N1CCN(c2ccccc2F)CC1	-4.3	-6.2	-5.6	-28.8	-0.3	5.4	/	i
S=c1[nH]nc(-c2ccccc2)n1/N=C/c1cccc(Br)c1	3.0	7.4	7.3	-1.8	4.0	1.0	-26.7	i
CN(C)Cc1nc2ccccc2c(=O)n1CC#N	/	9.1	1.6	13.5	-5.3	3.6	/	i
CC(OC(=O)Cn1nnc2ccccc21)C(=O)NC1CCCC1 (centres undefined)	-20.1	2.4	-9.2	-8.8	-0.4	4.1	1.9	i
C[C@H]1CN([C@@H](C)CO)C(=O)Cc2cc(NC(=O)CCC(F)(F)F)ccc2O[C@H]1CN(C)Cc1ccc(-c2ccccc2)cc1	122.7*	/	/	-317.0	0.6	0.0	-8.9	/
O=C(COC(=O)c1cnc(Cl)c(Cl)c1)NC1CC1	-11.1	/	/	-8.1	-0.4	5.6	-10.0	/
O=C(COc1ccccc1)OCc1csc(Nc2ccccc2)n1	-16.8	-7.0	0.3	14.8	0.3	2.2	77.4	i
COC(=O)CN1C(=O)C(O)(CC(=O)c2cccc(Br)c2)c2ccccc21 (centres undefined)	-0.1	-6.0	4.6	2.2	-1.5	6.1	-13.8	i

Among those listed so far, these contain two or more sulfur atoms.
SMILES	CSC inhib	PABP polyA inh	eIF4H FP inh	Env fusion inh	MT1-MMP act inh	MT1-MMP act inh RFP	UUG fidelity	Rce1 inhib	others
COc1ccc(NS(=O)(=O)c2csc(C(=O)N3CCCC3)c2)c(OC)c1	3.2	12.8	-3.4	-1.2	0.2	-3.8	-7.7	i
O=C(Nc1cccc(S(=O)(=O)N2CCCCC2)c1)c1ccc(S(=O)(=O)C(F)F)cc1	-14.3	0.1	3.5	17.5	-7.7	-24.9	-6.5	i
CCOc1ccc(S(=O)(=O)NCCC(=O)NCC(c2cccs2)N2CCOCC2)cc1 (centres undefined)	2.3	19.7	5.8	/	-0.3	2.6	-10.2	i

More results.
SMILES	CSC inhib	PABP polyA inh	eIF4H FP inh	Env fusion inh	MT1-MMP act inh	MT1-MMP act inh RFP	UUG fidelity	Rce1 inhib	others
Cc1c(Br)cc(C(=O)OC2CCN(C)CC2)c(C)c1C	65.0	9.7	-3.5	/	0.9	-0.6	-22.3	i
Cc1ccc(-n2c(=O)c3sccc3n(CC(=O)NCC3CCCO3)c2=O)cc1F (centres undefined)	/	6.4	7.0	-9.0	-0.4	-0.7	-6.9	i
COC(=O)c1ccccc1NC(=O)Cn1c(SC)c(F)cnc1=O	5.4	9.3	-8.6	37.4	-0.2	-3.0	-14.8	i
O=C(O)CCC(=O)NNC(=O)CCC(=O)NCc1ccccc1	-0.6	-7.2	53.0	/	1.9	5.4	-24.7	i	eIF4H FP inh retest=-3.0;PABP polyA inh retest=-2.8
COc1ccc(Cl)cc1CC1(C)C(=O)Nc2ccc(S(=O)(=O)NC3CCCCC3)cc21 (centres undefined)	/	/	/	92.8*	-10.9	-12.3	-6.9	/
O=C(c1ccc(F)cc1)C1CCN(Cc2cn[nH]c2-c2ccccc2)CC1	-3.7	4.7	3.2	0.2	2.2	4.5	/	/
COc1ccc(CN(C)C(=O)c2oc3ccccc3c2CSC)cc1F	11.8	-9.5	-9.8	20.2	4.0	2.7	-14.9	i
CS(=O)(=O)N(CC(=O)NCCSCc1ccccc1)c1ccccc1Br	-14.5	-1.4	-12.8	12.2	3.2	-2.8	-2.0	i
CC1CCCCC1NC(=O)c1ccco1 (centres undefined)	/	/	/	-5.6	2.8	4.8	-13.5	/
COc1ccccc1NC(=O)c1ccccc1C(=O)O	1.6	5.2	-3.4	3.8	-0.4	5.3	/	i
CC(=C/C(=O)O)/C=C/c1ccco1	8.7	-3.5	4.7	-12.9	-1.5	3.2	/	i
CC(Nc1ccccc1)C(=O)Nc1ccc(F)cc1 (centres undefined)	-0.5	1.6	-1.1	-12.9	8.1	5.0	-24.7	i
NS(=O)(=O)c1ccc(NC(=O)CCCCC(=O)Nc2ccc(S(N)(=O)=O)cc2)cc1	-3.2	-3.0	1.4	9.7	-4.1	1.0	4.6	i
CC(=O)N1CCN(c2ccccc2NC(=O)c2ccc3ccccc3c2)CC1	10.8	9.8	1.8	18.3	-5.3	-0.8	-7.9	i
CCN(Cc1ccccc1)C(=O)CS(=O)(=O)c1ccccc1	-1.3	0.9	-3.4	-12.6	0.6	2.5	-14.2	i
